# Compound activity deposited in PubChem by Broad Institute.
# DUX4 inh: DUX4-mediated transcription inhibition | 293T-iDUX4 ZSCAN4-Gaussia luciferase reporter, 24 h; active compounds read low | AID 1224904 | activity change, negative = inhibition, % (no concentration beside the values) | 37,000 compounds, 0.8% hits;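 active = -10% or lower and over 25 points stronger than a control reporter; inconclusive = -10% or lower with a smaller gap; inactive = above -10%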;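 also: 0% = median of neutral control wells and -100% = median of positive control wells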
# DUX4 inh difference: also measured in DUX4 inh; calls as there; Gaussia minus Italica difference, %; measured here: selective DUX4 reporter inhibition;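 worked out from the two reporters; negative = selective loss of the DUX4 reporter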
# DUX4 inh control: also measured in DUX4 inh; calls as there; activity change, negative = inhibition, %; measured here: Italica tet-on control reporter;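 0 = neutral control and -100 = positive control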
# An asterisk follows results filed as active; ? = inconclusive; . = no result given.
SMILES,DUX4 inh,DUX4 inh difference,DUX4 inh control
COCC(=O)Nc1ccc2c(c1)C(=O)N(C)[C@@H]1CC[C@H](CC(=O)NCc3ccc(OC)cc3)O[C@@H]1CO2,5,2,3.4
O=C(C[C@@H]1CC[C@H]2[C@@H](COC[C@@H](O)CN2S(=O)(=O)c2cccc(F)c2)O1)NCc1ccncn1,1,1,-0.4
CO[C@H](CN(C)C(=O)Nc1ccc(F)cc1)[C@@H](C)CN(Cc1ccccc1Cl)[C@H](C)CO,-2,3,-4.7
Cn1cnc(S(=O)(=O)N2C[C@@H](O)COC[C@@H]3O[C@@H](CC(=O)NC4CCC4)CC[C@H]32)c1,7,-3,10
C[C@@H]1CN([C@H](C)CO)C(=O)CCCn2nncc2CO[C@H]1CN(C)S(=O)(=O)c1ccc(Cl)cc1,6,7,-0.6
N#C[C@H]1[C@H](c2ccc(C#CC3CC3)cc2)[C@@H](CO)N1C(=O)c1cccc(F)c1,-1,-1,0.3
CCNC(=O)C[C@H]1CC[C@H]2[C@@H](COC[C@@H](O)CN2C(=O)Nc2cccc(OC)c2)O1,6,1,4.1
COc1ccc(-c2ccc([C@@H]3[C@@H](CO)N4C(=O)CNC[C@H]34)cc2)cc1,16,7,8.6
C[C@@H]1CCCCO[C@H](CN(C)C(=O)C2CCCCC2)[C@@H](C)CN([C@@H](C)CO)C(=O)c2cc(NC(=O)c3ccncc3)ccc2O1,0,0,0.9
CO[C@H]1CC[C@@H]2CCOc3ccc(C#N)cc3C(=O)N(C)C[C@@H](c3ccccc3)CC(=O)N(C)C[C@@H]1O2,-1,-2,1.0
CN1[C@@H]2c3ccc(/C=C/c4ccccc4)c(=O)n3C[C@@H]2[C@@H](CO)[C@@H]1C(=O)NCCN1CCCC1,0,-2,2.4
Cn1cnc(S(=O)(=O)N2C[C@H](O)COC[C@@H]3O[C@@H](CC(=O)NCc4cccc(F)c4)CC[C@H]32)c1,1,-11,12
CO[C@H]1CN(C)C(=O)c2cc(NC(=O)CC(F)(F)F)ccc2OC[C@@H](C)NC[C@@H]1C,-2,-2,0.1
COc1ccccc1CNC(=O)C[C@H]1C[C@@H]2c3cc(N(C)C)ccc3O[C@@H]2[C@@H](CO)O1,3,4,-0.7
C/C=C/c1ccc([C@@H]2[C@@H](C#N)N(S(=O)(=O)c3cccc(F)c3)[C@@H]2CO)cc1,1,-1,1.5
CN1C(=O)c2cc(NS(C)(=O)=O)ccc2OC[C@H]2O[C@@H](CC(=O)Nc3cccc(F)c3)CC[C@@H]21,5,4,0.9
CO[C@H]1CN(C)C(=O)c2cc(NC(=O)c3ccc(F)cc3)ccc2OC[C@H](C)NC[C@H]1C,2,-1,3.2
CC=Cc1ccc2n(c1=O)C[C@H]1[C@H](CO)[C@@H](C(=O)NCC)N(Cc3ccccc3Cl)[C@@H]21 (mixture of isomers),-3,-8,4.9
CCN(C[C@H]1[C@@H](c2ccccc2)[C@@H](CO)N1CC1CC1)C(=O)c1ccccc1F,-1,0,-0.4
Cc1ccccc1-c1ccc(C2[C@@H]3CN(Cc4cocn4)C[C@H]2N3)cc1 (stereo partly specified),?,-16,7.4
OC[C@H]1Nc2ccc(C#Cc3ccccc3)cc2[C@@H]2[C@H]1CCN2Cc1nccs1,?,.,.
COc1ccc(C[C@@H]2CCn3cc(nn3)COC[C@H](Cc3ccccc3)NC2=O)cc1,-2,-4,1.6
CCCNC(=O)N1[C@H](C#N)[C@H](c2ccc(-c3ccc(C(=O)N(C)C)cc3)cc2)[C@H]1CO,0,-4,4.4
O=S(=O)(c1ccccc1)N1C[C@@H]2N[C@H](C1)C2c1ccc(-c2ccc(F)cc2)cc1 (stereo partly specified),?,.,.
COc1ccccc1NC(=O)N(C)C[C@@H]1OCc2cn(nn2)CCCC(=O)N([C@@H](C)CO)C[C@@H]1C,5,1,3.4
C[C@@H]1CN([C@H](C)CO)S(=O)(=O)c2ccc(C#CCN(C)C)cc2O[C@@H]1CN(C)S(C)(=O)=O,10,17,-7.4
O=C(C[C@H]1CC[C@@H]2[C@H](COC[C@H](O)CN2C(=O)c2cnccn2)O1)NCc1ccccc1,8,3,4.9
O=C(CC1CC1)N1CC2(C1)[C@H](c1ccccc1)[C@@H](CO)N2Cc1cccc(F)c1,?,.,.
C[C@H](CO)N1C[C@H](C)[C@H](CN(C)Cc2ccccc2)Oc2ccc(NC(=O)Nc3ccccc3)cc2C1=O,-2,1,-3.5
CC[C@H]1C/C=C\C[C@@H](c2ccccc2)NC(=O)CCC(=O)N1,3,8,-4.7
CO[C@@H]1CC[C@@H]2CCOc3c(C#N)cccc3C(=O)N(C)C[C@@H](OC)[C@@H](C)C(=O)N(C)C[C@H]1O2,0,0,0.4
O=C1N[C@H](Cc2ccccc2)COCn2nncc2CC[C@@H]1Cc1ccccc1,1,-5,5.1
C[C@@H](NC(=O)[C@H]1[C@H](CO)[C@H]2Cn3c(ccc(C4=CCCC4)c3=O)[C@H]2N1C)c1ccccc1,0,-2,2.1
COc1ccc2c3c(n(C)c2c1)[C@@H](CO)N(C(=O)Nc1ccc(F)cc1)CC31CCN(Cc2cccnc2)CC1,?,.,.
C[C@@H]1CN([C@H](C)CO)C(=O)c2ccccc2-c2ccccc2CO[C@@H]1CN(C)C(=O)Nc1cccc(C(F)(F)F)c1,-4,4,-7.8
CCC(=O)N1[C@H](C(=O)OC)[C@@H](CO)[C@@H]2Cn3c(ccc(-c4cccc(F)c4)c3=O)[C@@H]21,8,4,3.8
C[C@H](CO)N1C[C@H](C)[C@@H](CN(C)Cc2ccc(-c3ccccc3)cc2)Oc2ccc(NC(=O)Nc3ccc(F)cc3)cc2CC1=O,2,0,2.1
CC(=O)N1[C@H](CO)[C@@H](c2ccccc2)C12CN(C(=O)CN1CCOCC1)C2,11,1,10
O=C(c1ccccn1)N1C[C@@H]2N[C@H](C1)C2c1ccc(-c2ccccc2F)cc1 (stereo partly specified),?,0,-2.1
CN(C)C(=O)C[C@H]1CC[C@@H]2[C@H](COC[C@H](O)CN2S(=O)(=O)c2ccccc2Cl)O1,7,6,0.4
O=C(C[C@H]1CC[C@@H]2[C@H](COC[C@@H](O)CN2S(=O)(=O)c2ccc(F)cc2)O1)NCCN1CCCCC1,10,9,0.8
O=C(C[C@H]1CC[C@H]2[C@@H](COC[C@@H](O)CN2CCC(F)(F)F)O1)NCc1ccc(Oc2ccccc2)cc1,?,.,.
C[C@@H]1CN([C@@H](C)CO)C(=O)CCCn2cc(nn2)CO[C@H]1CN(C)S(=O)(=O)c1cccs1,2,1,1.3
Cc1nn(C)cc1NC(=O)C[C@H]1CC[C@H]2[C@@H](COc3ccc(NC(=O)C4CCOCC4)cc3C(=O)N2C)O1,0,-1,0.8
CO[C@H]1CN(C)C(=O)c2cc(NC(=O)Cc3ccccc3)ccc2OC[C@H](C)NC[C@@H]1C,-2,-3,0.8
N#C[C@@H]1[C@H](c2ccc(-c3cccc(F)c3)cc2)[C@@H](CO)N1C(=O)c1cccnc1,-3,-8,4.3
CN(C)C(=O)[C@@H]1[C@@H](CO)[C@@H]2Cn3c(ccc(C4=CCCCC4)c3=O)[C@@H]2N1C(=O)c1ccccc1F,4,1,3.5
COCC(=O)Nc1ccc2c(c1)C(=O)N(C)[C@@H]1CC[C@@H](CC(=O)NCC3CC3)O[C@@H]1CO2,-6,-2,-4.0
COc1cccc(C#Cc2ccc([C@H]3[C@@H](CO)N(C(=O)C4CCC4)[C@H]3C#N)cc2)c1,2,-3,4.7
CO[C@@H]1CN(C)C(=O)c2ccc(NS(=O)(=O)CC(F)(F)F)cc2OC[C@@H](C)N(C(=O)NC(C)C)C[C@H]1C,5,7,-2.0
CCS(=O)(=O)N1CC(=O)N2[C@H](CO)[C@@H](c3ccc(-c4ccc(C)cc4)cc3)[C@H]2C1,10,9,0.8
COc1ccccc1-c1cnc2c(c1)C(=O)N([C@H](C)CO)C[C@@H](C)[C@@H](CN(C)C(=O)CC1CC1)O2,0,-2,2.1
Cc1ccc(S(=O)(=O)N(C)C[C@@H]2OCCCC[C@@H](C)Oc3ccc(NC(=O)C4CCCCC4)cc3C(=O)N([C@@H](C)CO)C[C@H]2C)cc1,?,.,.
COc1ccc2c3c(n(C)c2c1)[C@@H](CO)NCC31CN(C(=O)CC2CC2)C1,18,11,7.1
CC(=O)N1CC2(C1)[C@H](c1ccccc1)[C@H](CO)N2Cc1cccc(Cl)c1,-7,-8,0.8
C[C@@H]1CN([C@H](C)CO)C(=O)CCCn2nncc2CO[C@@H]1CN(C)C(=O)Nc1ccc(N2CCCCC2)cc1,0,1,-1.5
CO[C@H]1CN(C)C(=O)c2ccc(NC(C)=O)cc2OC[C@@H](C)N(C(=O)c2cnccn2)C[C@@H]1C,6,1,5.0
CC1C=NC(S(=O)(=O)N2CC[C@H]3[C@@H](CO)N(C)c4ccc(-c5ccc(F)cc5)cc4[C@H]32)=N1 (stereo partly specified),12,5,6.9
COc1ccccc1NC(=O)N[C@@H]1CC[C@H](CC(=O)N2CCC(Cc3ccccc3)CC2)O[C@H]1CO,?,.,.
CCC(=O)N1CC[C@@H]2[C@H](CO)Nc3ccc(C#Cc4ccccc4F)cc3[C@@H]21,?,.,.
# New compounds follow.
SMILES,DUX4 inh,DUX4 inh difference,DUX4 inh control
COc1ccc2c3c([nH]c2c1)[C@H](CO)N(C(=O)CN(C)C)CC31CCN(Cc2ccncc2)CC1,5,-8,13
C[C@H](NC(=O)C[C@@H]1C[C@H]2c3cc(NC(=O)C4CCOCC4)ccc3O[C@H]2[C@@H](CO)O1)c1ccccc1,11,8,3.0
COc1cccc(-c2cnc3c(c2)C(=O)N([C@@H](C)CO)C[C@H](C)[C@@H](CN(C)C(=O)Nc2ccccc2F)O3)c1,-5,-2,-2.2
COc1ccc(S(=O)(=O)N(C)C[C@H]2Oc3ccc(NC(=O)Nc4ccc(C(F)(F)F)cc4)cc3C(=O)N([C@H](C)CO)C[C@H]2C)cc1,-1,1,-1.9
Cc1noc(C)c1S(=O)(=O)Nc1ccc2c(c1)C(=O)N([C@@H](C)CO)C[C@H](C)[C@H](CN(C)Cc1ccc(C(=O)O)cc1)OCCCC[C@@H](C)O2,7,3,4.2
C[C@H]1CN([C@@H](C)CO)C(=O)c2c(c3ccccc3n2C)-c2ccccc2CO[C@@H]1CN(C)S(=O)(=O)c1ccc(C(F)(F)F)cc1,?,.,.
CC(C)NC(=O)N(C)C[C@H]1Oc2ncc(-c3ccccc3F)cc2C(=O)N([C@H](C)CO)C[C@@H]1C,2,3,-1.0
CO[C@@H]1CN(C)C(=O)c2cc(NS(=O)(=O)CC(F)(F)F)ccc2OC[C@H](C)N(Cc2ccccn2)C[C@@H]1C,-3,-1,-1.6
CCCNC(=O)[C@H]1[C@H](CO)[C@H]2Cn3c(ccc(-c4cncnc4)c3=O)[C@H]2N1C(=O)c1ccccc1F,3,0,2.7
CCCNC(=O)NC[C@@H]1[C@@H](c2ccc(C3=CCCCC3)cc2)[C@H](CO)N1C(C)=O,-3,-3,-0.1
CN1C(=O)c2cc(NS(=O)(=O)c3ccccc3F)ccc2OC[C@H]2O[C@H](CC(=O)NC3Cc4ccccc4C3)CC[C@H]21,4,4,0.0
O=C(CC(F)(F)F)N1C[C@@H]2[C@H](c3ccccc31)[C@@H](CO)N2C(=O)Cc1cccnc1,-1,-2,1.0
Cc1cccc(-c2ccc([C@H]3[C@H](CO)N4CCCCN(CCC(F)(F)F)C[C@@H]34)cc2)c1,?,.,.
CCS(=O)(=O)N1CC2(CN(Cc3ccccc3F)[C@H](CO)c3c2c2ccc(OC)cc2n3C)C1,?,.,.
CCCNC(=O)C[C@H]1CC[C@H]2[C@@H](COc3ccc(NC(=O)Nc4ccccc4F)cc3C(=O)N2C)O1,-4,-8,4.0

# Among those listed so far, nine contain a CF3 group:
SMILES,DUX4 inh,DUX4 inh difference,DUX4 inh control
CO[C@H]1CN(C)C(=O)c2cc(NC(=O)CC(F)(F)F)ccc2OC[C@@H](C)NC[C@@H]1C,-2,-2,0.1
C[C@@H]1CN([C@H](C)CO)C(=O)c2ccccc2-c2ccccc2CO[C@@H]1CN(C)C(=O)Nc1cccc(C(F)(F)F)c1,-4,4,-7.8
O=C(C[C@H]1CC[C@H]2[C@@H](COC[C@@H](O)CN2CCC(F)(F)F)O1)NCc1ccc(Oc2ccccc2)cc1,?,.,.
CO[C@@H]1CN(C)C(=O)c2ccc(NS(=O)(=O)CC(F)(F)F)cc2OC[C@@H](C)N(C(=O)NC(C)C)C[C@H]1C,5,7,-2.0
COc1ccc(S(=O)(=O)N(C)C[C@H]2Oc3ccc(NC(=O)Nc4ccc(C(F)(F)F)cc4)cc3C(=O)N([C@H](C)CO)C[C@H]2C)cc1,-1,1,-1.9
C[C@H]1CN([C@@H](C)CO)C(=O)c2c(c3ccccc3n2C)-c2ccccc2CO[C@@H]1CN(C)S(=O)(=O)c1ccc(C(F)(F)F)cc1,?,.,.
CO[C@@H]1CN(C)C(=O)c2cc(NS(=O)(=O)CC(F)(F)F)ccc2OC[C@H](C)N(Cc2ccccn2)C[C@@H]1C,-3,-1,-1.6
O=C(CC(F)(F)F)N1C[C@@H]2[C@H](c3ccccc31)[C@@H](CO)N2C(=O)Cc1cccnc1,-1,-2,1.0
Cc1cccc(-c2ccc([C@H]3[C@H](CO)N4CCCCN(CCC(F)(F)F)C[C@@H]34)cc2)c1,?,.,.

# These rows are one share of the data; the hit share may differ from the screen's.
